gsp agonist: activates gsp, the McCune-Albright syndrome mutation. gsp mutant cells, cAMP HTRF, 30 min; control for the full effect not named in the record. Potency, µM (highest dose often 76.9 µM), without a hit: top-dose activation (cAMP increase), most hits filed as activators. actives 0.13% (n = 340,000). AID 624287; active = well fitted activation curve with a large enough effect; inconclusive = small, poorly fitted or top-dose-only effect, or another doubt; inactive = no such curve, though single readings can be large or run the other way; cell line not stated here;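 also: phosphodiesterase inhibitor Ro 20-1724 added with compounds to block cAMP breakdown; potency is read from the fitted curve at half-maximal effect; nearly all actives have a fitted effect of over 60% in size; about a fifth of the inactives were tested at one dose only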
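Cells stably selected in G418 were plated at 2000/well, grown 16-24 hr, then given compounds in DMSO with the PDE inhibitor […] (300 uM solution added) for 30 min at 37C; cAMP was read by HTRF.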
Sfp inh: Sfp phosphopantetheinyl transferase inhibition. Q9F4F7. Biochemical Sfp PPTase activity, qHTS. Potency, µM, inactives show max response, negative = inhibition, most hits filed as inhibitors. actives 3.5% (n = 310,000). AID 1490; active = well fitted inhibition curve with a large enough effect; inconclusive = small, poorly fitted or top-dose-only effect, or another doubt; inactive = no such curve, though single readings can be large or run the other way;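 also: the enzyme is Sfp with the accession as filed and its product quenches rhodamine fluorescence; potency is read from the fitted curve at half-maximal effect; 0% = enzyme reaction without inhibitor and -100% = no enzyme wells; top concentration of the series not given in the record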
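Fluorescence-quenching assay: 15 nM Sfp-PPTase preincubated 15 min at room temperature with compound, then 5 uM rhodamine-CoA and 12.5 uM BHQ-2-labelled YbbR peptide added. Fluorescence (ex 525/em 598 nm) read at start and after 30 min; difference gives rate.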
ClpP mod: qHTS Assay for Activators of ClpP; ATP-dependent Clp protease proteolytic subunit (Bacillus subtilis (strain 168)), P80244; actives 1.9% (n = 340,000); purified B. subtilis ClpP, FRET peptide cleavage, 20 min; Potency, µM (series often up to 57.5 µM), for the others: at the highest dose activity change, negative = active; AID 651965, 2013; active = well fitted falling curve with a large enough effect; inconclusive = small, poorly fitted or top-dose-only effect; inactive = no such curve, though single readings can be large or run the other way; also: potency is read from the fitted curve at half-maximal effect; the source files actives as falling curves though it sought activators and does not explain the sign; nearly all actives have a fitted effect of over 65% in size; many hits overshoot -100%
Target sequence (P80244 whole entry, looked up): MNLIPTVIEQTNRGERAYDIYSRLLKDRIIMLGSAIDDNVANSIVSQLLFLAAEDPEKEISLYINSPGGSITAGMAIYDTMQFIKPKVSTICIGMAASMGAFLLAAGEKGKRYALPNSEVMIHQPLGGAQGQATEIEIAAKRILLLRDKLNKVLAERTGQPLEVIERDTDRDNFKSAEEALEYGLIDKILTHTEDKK
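Purified B. subtilis ClpP, 10 microg/mL final in Tris/HCl pH8 with KCl, BSA, glycerol and Tween-20, cleaved an Abz/nitrotyrosine-quenched decapeptide. Fluorescence (ex 320, em 430) was read at 0 and 20 min at room temperature. Delta was normalized to 5.8 microM ADEP and DMSO/no-enzyme controls.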
Menin MLL FP FL: menin-MLL binding inhibition, fluorescein peptide; Fluorescence polarization, fluorescein-MLL peptide displacement from menin; FP activity change, % at 61.4 µM; 290,000 tested, under 10 active; inconclusive = falling polarisation curve, or a change in total fluorescence; inactive = total fluorescence flat and polarisation flat or rising; no compound was filed as active; the % refers to the polarisation; negative = inhibition;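 also: % of control where 0% means no effect; inhibitors lower the polarisation; unlabelled MLL peptide was the positive control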
TRPV1 PAM: potentiators of human vanilloid receptor 1 (TRPV1). Q8NER1. TRPV1-expressing cells, Fluo-8 calcium influx, capsaicin EC20 potentiation; host cell line not named in the record; control for the full effect not named in the record. potentiation, % at 8.33 µM. actives 0.02% (n = 320,000). AID 540277; active means potentiation above 80%; inconclusive means 30% to 80%; inactive means below 30%; also: 0% is about no effect
Target sequence (Q8NER1 whole entry, looked up): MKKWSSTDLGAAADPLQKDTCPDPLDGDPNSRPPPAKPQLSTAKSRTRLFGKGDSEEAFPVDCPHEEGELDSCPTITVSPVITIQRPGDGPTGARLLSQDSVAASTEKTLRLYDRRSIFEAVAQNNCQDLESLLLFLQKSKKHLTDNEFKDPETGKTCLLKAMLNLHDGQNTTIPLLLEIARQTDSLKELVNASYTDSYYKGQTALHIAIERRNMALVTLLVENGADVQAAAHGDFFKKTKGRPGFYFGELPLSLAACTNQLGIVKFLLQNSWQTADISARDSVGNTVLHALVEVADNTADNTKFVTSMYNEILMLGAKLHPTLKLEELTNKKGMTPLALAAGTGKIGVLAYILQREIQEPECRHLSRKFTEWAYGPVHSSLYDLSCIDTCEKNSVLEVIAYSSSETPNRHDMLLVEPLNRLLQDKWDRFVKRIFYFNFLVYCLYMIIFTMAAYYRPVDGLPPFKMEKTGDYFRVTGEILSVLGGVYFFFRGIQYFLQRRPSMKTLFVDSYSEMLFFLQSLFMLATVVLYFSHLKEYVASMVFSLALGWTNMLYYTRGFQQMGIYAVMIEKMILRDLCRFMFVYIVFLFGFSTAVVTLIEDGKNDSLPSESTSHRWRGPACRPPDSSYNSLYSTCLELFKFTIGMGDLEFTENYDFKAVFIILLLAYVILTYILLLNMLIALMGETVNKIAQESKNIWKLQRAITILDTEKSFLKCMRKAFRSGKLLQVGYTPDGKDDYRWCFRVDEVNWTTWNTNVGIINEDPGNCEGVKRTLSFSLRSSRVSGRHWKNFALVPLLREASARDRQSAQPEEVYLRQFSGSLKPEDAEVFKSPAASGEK
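Fluo-8 calcium influx in TRPV1-expressing cells, kinetic read (ex 480/em 520 nm). Compound added and read 3 min for agonist activity, followed by capsaicin at EC20 final and 2 min further read for enhancement.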
CtBP-E1A inh: CtBP/E1A binding inhibition; activity change, % (concentration not given with the values); actives 0.49% (n = 340,000); AlphaScreen GST-E1A/His-CtBP binding, 1536-well; active compounds read low; control for the full effect not named in the record; AID 651724; in the data active means activity change below about -65%; inconclusive means about -30% to -65%; inactive means above about -30%; also: % is scaled to controls: 0 for no effect and ±100 for the full control effect
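Homogeneous bead-based format: GST-tagged E1A captured on glutathione donor beads, His-tagged CtBP on nickel acceptor beads; compounds precede bead addition by 2 h at 37 °C.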
gsp antagonist: antagonists of gsp mutant (McCune-Albright syndrome) | gsp-mutant cells, cAMP HTRF, 30 min; control for the full effect not named in the record | Potency, µM (series often up to 76.9 µM), without a hit: at the highest dose activity change, negative = inhibition, hits mostly inhibitors | actives 0.4% (n = 340,000); active = falling curve of any shape with a large fitted effect; inconclusive = falling curve, mostly with a smaller effect; inactive = flat or rising curve; cell line not stated here;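 also: intracellular cAMP measured with PDE inhibitor Ro 20-1724 present during compound exposure; potency is read from the fitted curve at half-maximal effect; % is scaled to controls: 0 for no effect and ±100 for the full control effect; nearly all actives have a fitted effect of over 65% in size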
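Cells, 2000/well, grown 16–24 h in DMEM 10% FBS with 0.5 mg/ml G418, then compounds plus […] (300 uM addition stock), 30 min at 37C. cAMP read by HTRF (cAMP-d2 and anti-cAMP antibody-K in lysis buffer) after 30 min RT.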
The depositor's hits bear a star; ? = inconclusive; / = no result given; & = joins results of further samples; [ ] = remark or other dose.

SMILES | gsp agonist | Sfp inh | ClpP mod | Menin MLL FP FL | TRPV1 PAM | CtBP-E1A inh | gsp antagonist
CCC(O)c1c(-c2ccccc2)nn(C)c1Cl (stereo not given) | 7%[15.4 µM] | 16% | / | 1.2 | -1 | 7 | 1%
COc1cccc(/C=N/n2c(CO)nc3ccccc32)c1OC | 24% | 8% | 0.0% | 4.0 | / | 0 | 0%
COC(=O)CCC(=O)OC1(C)C(=O)C2=CN(CC3CC3)C(c3ccc(OC)cc3)=CC2=C(Br)C1=O (stereo not given) | / | -6%&-18% | 1.8% | ? | -20 | -13 | -19%
Cc1ccc(Nc2nc3ccccc3n3cnnc23)cc1Cl | 17% | -12% | 3.7% | 8.5 | 4 | 1 | 12%
O=C(c1ccc(F)cc1)N1CCC(C(=O)N(Cc2ccccc2)c2ccccc2)CC1 | -4% | / | -0.6% | / | -13 | / | -14%
CCNS(=O)(=O)c1ccc(NS(C)(=O)=O)cc1 | -6% | 10% | -1.9% | 2.9 | -4 | 4 | 0%
COC(=O)c1[nH]c2ccc(Br)cc2c1NC(=O)CN1CCCCC1CCO (stereo not given) | ? | 23% | 0.9% | -1.1 | 2 | -3 | 4%
Cc1ccc(NC(=O)CN2CCC(C(=O)c3ccc(F)cc3)CC2)cc1 | -26% | 13% | -1.4% | 0.5 | -11 | 3 | 3%
COc1ccc(-c2csc(/C(C#N)=C\c3cccc([N+](=O)[O-])c3)n2)cc1 | / | 3% | / | 2.9 | ? | / | /
CC(C(=O)NCCN1C(=O)S/C(=C\c2cccs2)C1=O)N1C(=O)c2ccccc2C1=O (stereo not given) | -1%[15.4 µM] | 11% | -8.9% | 2.7 | -1 | 1 | ?
Cc1cccn2cc(CNS(=O)(=O)c3ccc4ccccc4c3)nc12 | -5% | -5% | -2.6% | / | -3 | -17 | -11%
CC1Sc2ccc(S(=O)(=O)N3CCC(C(=O)Nc4cccc(Cl)c4)CC3)cc2NC1=O (stereo not given) | 25% | 21% | -0.5% | / | -20 | 2 | ?
O=C(NCCc1ccccc1)C(=O)NCC(c1ccco1)N1CCOCC1 (stereo not given) | -1% | 20% | 0.9% | -1.7 | 2 | 1 | -8%
O=C(NCC1CCCO1)c1ccc(NC(=O)c2cccc(Cl)c2)cc1 (stereo not given) | -5% | / | 0.6% | / | / | / | 0%
Clc1ccc(CNCc2cccs2)cc1Cl | -11% | 2% | 0.8% | 0.1 | -4 | -19 | 13%
O=C(NC1CCCC1)C1(c2ccccc2)CCN(S(=O)(=O)c2ccccc2)CC1 | -8% | 20% | -2.4% | 0.5 | 15 | -1 | -1%
COc1cc2c(cc1OC)C(c1ccccc1O)N(C1CC(=O)N(c3ccccc3)C1=O)CC2 (stereo not given) | 1% | ? | 0.3% | 1.9 | 0 | -10 | -2%
COc1cccc(CNC(=O)C2Cc3cc(S(=O)(=O)N4CCCC4)ccc3N2C(C)=O)c1OC (stereo not given) | -4% | -3% | -2.3% | / | 27 | -11 | -5%
COc1cccc(C2CC(c3cccs3)=NN2C(=O)CSc2nc3ccccc3o2)c1OC (stereo not given) | 0% | 19% | 8.9µM* | 11 | -18 | 17 | 4%
N#CCC(=O)N/N=C/c1ccc(OS(=O)(=O)c2ccccc2)cc1 | -3% | 8% | 0.7% | 0.6 | -7 | -3 | 0%
COc1ccc(-c2cnnn2-c2ccc(NC(=O)/C=C/c3ccc(OC)c(OC)c3)cc2)cc1 | -26% | -8% | ? | 5.8 | -9 | -3 | -8%
O=C(CSc1ccccc1)Nc1nc2ccccc2[nH]1 | -24% | 17% | 1.1% | -0.5 | -5 | 1 | 14%
COc1ccc2c(c1)C1=NN(/C(C)=C\C(C)=O)C(c3ccccc3)C1CC2 (stereo not given) | 6% | -22% | -11% | 9.5 | 7 | 9 | -15%
NC(=O)NC(=O)COC(=O)c1ccc2c(c1)C(=O)N(Cc1ccccc1)C2=O | -14% | 11% | 0.4% | 1.0 | -5 | / | 3%
CC(Cc1ccc(Cl)cc1)N1CCC(n2nccc2NC(=O)C2CCCC2)CC1 (stereo not given) | -21% | 6% | -1.8% | / | -6 | -22 | 7%
CC1Cc2ccccc2N1C(=O)C1CCCN(S(=O)(=O)c2cccc3cccnc23)C1 (stereo not given) | 17% | -14% | 1.2% | 9.2 | -8 | -9 | -34%
Cc1cc2c(=O)n(Cc3ccco3)c(SCC(=O)NCc3ccco3)nc2s1 | 1% | -12% | -1.4% | 0.1 | 12 | -3 | 3%
COc1ccc(C(=O)NC(C)CCCC(C)(C)O)cc1OC1CCN(C(C)=O)CC1 (stereo not given) | -3% | 10% | -0.7% | 6.5 | 1 | 0 | 0%
Cc1nnc(SCC(=O)Nc2ncc(S(=O)(=O)c3ccc([N+](=O)[O-])cc3)s2)s1 | 26% | 3% | -1.7% | -5.7 | 9 | 8 | -15%
O=C(N/N=C/c1ccc2c(c1)OCO2)c1cccnc1 | 9% | 13% | / | -1.9 | ? | 0 | 2%
COc1cc(C(=O)NC(=S)NNC(=O)[C@H]2C[C@@H]2c2ccccc2)cc(OC)c1OC | -36%[inhibitor] | 19% | / | 2.2 | 4 | -4 | -1%
CCOc1ccc(N2C(=O)CC(N3CCN(c4ccccc4OC)CC3)C2=O)cc1 (stereo not given) | -1% | 8% | 3.6% | -4.0 | -1 | 4 | 1%
CC(OC(=O)CNS(=O)(=O)/C=C/c1ccccc1)C(=O)Nc1ccc(S(=O)(=O)N2CCCC2)cc1 (stereo not given) | 0% | 14% | -0.8% | 1.2 | 4 | ? | -3%
O=C(CC(=O)c1ccccc1)Nc1cccc([N+](=O)[O-])c1 | -17% | / | 1.1% | / | / | -4 | /
S=C(NCc1ccncc1)Nc1ccc(Cl)cc1 | -10% | 12% | 3.5% | 3.7 | 2 | -6 | 6%
COc1ccc(CNC(=O)c2cc(S(=O)(=O)N3CCCCC3)ccc2Cl)cc1OC | -13%[15.4 µM] | / | 1.0% | / | / | -1 | -10%
CCN1C(=O)[C@H]2[C@@H](c3ccc(-c4cccc(Cl)c4)c(OC)c3)N3CCCC[C@@]3(C(=O)OC)[C@H]2C1=O | -23% | / | -13% | / | / | -11 | -5%
Cc1ccc(S(=O)(=O)NC2CC2)cc1[N+](=O)[O-] | -27% | 2% | / | 0.4 | ? | -1 | 9%
CCN(CC)CCNCc1cc(Cl)ccc1OCc1ccccc1F | 17%[15.4 µM] | -19% | / | 3.1 | 28 | -2 | -3%
c1ccc(-c2nnc(-c3ccccn3)nn2)nc1 | ? | / | -2.0% | / | / | -91* | 7%

Looked up by compound from above, three records:
SMILES | gsp agonist | Sfp inh | ClpP mod | Menin MLL FP FL | TRPV1 PAM | CtBP-E1A inh | gsp antagonist
COc1ccc(CNC(=O)c2cc(S(=O)(=O)N3CCCCC3)ccc2Cl)cc1OC | -13%[15.4 µM] | / | 1.0% | / | / | -1 | -10%
CCN1C(=O)[C@H]2[C@@H](c3ccc(-c4cccc(Cl)c4)c(OC)c3)N3CCCC[C@@]3(C(=O)OC)[C@H]2C1=O | -23% | / | -13% | / | / | -11 | -5%
COc1ccc2c(c1)C1=NN(/C(C)=C\C(C)=O)C(c3ccccc3)C1CC2 (stereo not given) | 6% | -22% | -11% | 9.5 | 7 | 9 | -15%

Further structures
SMILES | gsp agonist | Sfp inh | ClpP mod | Menin MLL FP FL | TRPV1 PAM | CtBP-E1A inh | gsp antagonist
COc1ccc(/C=C/C(=O)NC(C)(C)C)cc1S(=O)(=O)N1CCOCC1 | 13% | -1% | -1.2% | 2.2 | -5 | 2 | 2%
CCOC(=O)C1CCN(c2cc3c(cc2NC(=O)c2ccc(F)cc2)n(C)c(=O)n3C)CC1 | 2% | -1% | -1.0% | / | -12 | 3 | 1%
COc1ccc(C(=O)OCC(=O)N(C)C2CCS(=O)(=O)C2)cc1Br (stereo not given) | ? | / | -2.4% | / | 9 | -6 | 11%
CC(C)C(=O)NN1c2ccccc2CCc2ccccc21 | ? | 3% | 0.5% | 3.3 | 8 | 8 | 8%
COc1cc(C2NC(=O)NC(c3ccccc3)=C2C(C)=O)c(Br)c(Br)c1O (stereo not given) | -7% | -9% | -2.0% | -3.9 | 4 | / | 1%
O=C(CN1CCN(Cc2ccc3c(c2)OCO3)CC1)Nc1ccc2c(c1)OCO2 | -32%[inhibitor] | -7% | 0.4% | 2.8 | -7 | -2 | -5%
O=C(OCc1ccccc1Cl)c1ccc(-n2cnnc2)cc1 | 0% | -5% | -1.1% | -1.1 | 1 | -3 | 1%
O=C(NCCN1CCCCCC1)C1CCN(S(=O)(=O)N2CCOCC2)CC1 | 9% | 0% | -1.0% | -1.4 | -2 | 3 | 6%
COc1ccc(Br)cc1/C=C\C(=O)NCc1cccnc1 | -4%[15.4 µM] | 7% | / | -1.0 | -4 | 2 | -12%
Cc1c(Br)c(C(N)=O)nn1C | 23% | 7% | -0.4% | 0.7 | 4 | 5 | 9%
Cn1cnc([N+](=O)[O-])c1Nc1ccccc1O | -34% | -17% | -11% | -1.0 | 26 | 5 | 6%
CN(C)c1nc(-c2ccccc2)nc(-c2ccc(Cl)cc2)c1C#N | ? | -23% | -35% | -4.2 | 14 | 9 | 25%
COC(=O)c1c(C)[nH]c(C(=O)OCC(=O)NCC(C)C)c1C | ? | 13% | -1.3% | 11 | 4 | -1 | -8%
O=C(CSc1nnc2c(n1)[nH]c1ccccc12)Nc1cccc(S(=O)(=O)N2CCOCC2)c1 | ? | 79µM* | -1.0% | 1.1 | 1 | -18 | ?
CCOc1ccccc1N1CCN(C(=O)c2ccc(-c3ccc(OC(C)=O)cc3)cc2)CC1 | -34%[inhibitor] | -11% | 0.0% | -2.6 | -4 | / | -16%
Cc1ccc(F)cc1NC(=O)C1CC(=O)N(Cc2ccccc2)C1 (stereo not given) | 11% | / | -0.2% | / | / | 6 | /
CC(C)C[C@@H]1CN=C(N)N1C[C@@H]1CCCN1C[C@@H](C(C)C)N1C[C@@H](Cc2ccccc2)N(CCCC2CCCC2)C1=N | / | / | -2.0% | / | / | -27 | -1%
CCN1CCC2(CCN(C(=O)c3cc(COc4cc(C)ccc4C)on3)C2)C1 (stereo not given) | -2% | -6% | -3.7% | / | 29 | -1 | 2%

Screens from PubChem BioAssay.

Not a hit list. Share with any hit: about 5.3%.
